NPYLR7 ag = activates Aedes aegypti NPYLR7 receptor. HEK293T NPYLR7/Galpha15, GCaMP6s calcium fluorescence. activation, % at 10 µM. 270,000 compounds, 0.15% hits; in the data active = activation above about 40%;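 also: 0% = vehicle and 100% = reference agonist at the receptor; some compounds past the cut are filed as inactive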
NPYLR7 ag max-min = recorded beside NPYLR7 ag, whose call it bears; activation, %; measured here: Max-Min RFU normalised activation; some inactives read as strong as hits;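 span of the calcium signal over five minutes; 0% = vehicle and 100% = native peptide agonist; compound fluorescence can raise it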
* marks the source's active call; other numbers are inactive results; & = joins results of further samples. Not all compounds are listed, so the mix of outcomes need not match the whole.

structure | NPYLR7 ag | NPYLR7 ag max-min
CCc1ccccc1NC(=O)c1cccn(Cc2cccc(F)c2)c1=O | 8 | 1
Cc1cc(NCc2cnc(C)c(C)c2)nc(N2CCCCC2)n1 | 17 | 3
CC(=O)c1ccc(OCC(=O)N2CCCC(N3CCN(c4ccccc4C)CC3)C2)cc1 (configuration not stated) | 3&1 | -1&-2
COC(=O)CN1CN(c2ccccc2)C2(CCN(Cc3ccc4ccccc4c3)CC2)C1=O | 10 | -1
O=C(O)c1cccnc1CN1CC=C(c2ccccc2)CC1 | 11 | 4
O=C(NC1CCCc2ccccc21)C(C1CCCC1)N1CCN(C(=O)Cc2ccccc2)CC1 (configuration not stated) | 25 | 23
CC12CCC3C(Br)(CC31C)C2=O (configuration not stated) | -2 | -4
COc1ccc(-n2c(SCC(C)C)nc3ccccc3c2=O)cc1OC | 1 | 5
NC(=O)c1ccc(NC(=O)c2nn(Cc3cccc(Oc4ccccc4)c3)c3ccccc23)cc1 | 20 | 19
Nc1c2c(nc3sc4c(c13)CCCC4)CCCCC2 | 42* | 57*
O=C1[C@H]2CNCCN2C(=O)N1C1CCCCC1 | -9 | -15
CCCNC1CC(OCC)C1(C)C (configuration not stated) | 7 | 3
CCN1C(=O)C2(c3ccccc31)c1c(cc(C)n(CCOC)c1=O)OC(=N)C2C(=O)OC (configuration not stated) | -3 | -5
O=C(Cc1ccccc1)N1CCCC(N2CCc3ccccc3C2)C1 (configuration not stated) | -2 | 1
O=C1C=C2C=C[C@@H]3C[C@@]2(O1)[C@H]1CCCCN31 | 3 | -5
C[N+]12CCC(CC1)C(Cc1ccccc1)C2 (configuration not stated) | 3 | 4
Nc1cc2nc3ccccc3nc2cc1N | 3 | 4
COc1ccc(/C=C/C(=O)N2CC3C[C@@H](C2)Cn2c3cccc2=O)cc1OC | 4 | 1
N[C@H]1C[C@@H]1c1ccccc1 | -1 | -5
CCOC(C)c1nc(CC(=O)N2CC(C)C(N(C)C)C2)cs1 (configuration not stated) | -1 | -1

Full records, looked up by structure:
Nc1c2c(nc3sc4c(c13)CCCC4)CCCCC2 as listed: NPYLR7 ag: 42*; NPYLR7 ag max-min: 57*
CCN1C(=O)C2(c3ccccc31)c1c(cc(C)n(CCOC)c1=O)OC(=N)C2C(=O)OC (configuration not stated) as listed: NPYLR7 ag: -3; NPYLR7 ag max-min: -5

Following part.
structure | NPYLR7 ag | NPYLR7 ag max-min
CC(=O)c1ccc(NC(=O)c2cccn(Cc3ccccc3Cl)c2=O)cc1 | 14 | 5
C[C@H]1CCC2(NC1)O[C@H]1C[C@H]3[C@@H]4CC[C@H]5C[C@@H](O[C@@H]6O[C@H](CO)[C@H](O[C@@H]7O[C@H](CO)[C@@H](O)[C@H](O[C@@H]8OC[C@@H](O)[C@H](O)[C@H]8O)[C@H]7O[C@@H]7O[C@H](CO)[C@@H](O)[C@H](O)[C@H]7O)[C@H](O)[C@H]6O)CC[C@]5(C)[C@H]4CC[C@]3(C)[C@H]1[C@@H]2C (some centres not stated) | 24 | 19
Fc1ccc(Cl)cc1C1NCCc2[nH]cnc21 (configuration not stated) | 4 | 3
COc1ccc(C)cc1CC(N)C(C)C (configuration not stated) | 11 | 5
O=C1C=C2C=C[C@@H]3CC2(O1)[C@H]1CCCCN31 | -1 | -7
CCCN(CCC)[C@@H]1CCc2c(F)ccc(O)c2C1 | 5 | -35
Cc1ccccc1Cn1cccc(C(=O)Nc2ccncc2)c1=O | 1 | 0
FC(F)(F)c1cccc(C2CNCCO2)c1 (configuration not stated) | -16 | -24
c1ccc(Cn2ccnc2)cc1 | -1 | -7
CCc1cc2c(=O)[nH]c(N3CCN(C)CC3)nc2s1 | -3 | -5
N#Cc1cccc(CN2CCN(c3ccccc3F)CC2)c1 | 2 | 0
CCc1noc(C(C)NC(=O)c2nn(C)c3ccccc23)n1 (configuration not stated) | 1 | -13
N=C1C(c2ccccc2)C(=O)CN1Cc1ccco1 (configuration not stated) | -2 | -3
CN1CCC(NCCC2CCCO2)CC1 (configuration not stated) | 19 | 14
COC(=O)C1C(=N)Oc2cc(C)n(C)c(=O)c2C12C(=O)N(Cc1ccc(F)cc1)c1ccccc12 (configuration not stated) | 2 | 1
COC(=O)c1cc(C(O)(C(=O)OC)C(F)(F)F)c(N=CN(C)C)s1 (configuration not stated) | -6 | -13
N#Cc1ccc(Cl)cc1NC(=O)c1cccn(Cc2ccc(F)cc2)c1=O | 13 | 3
O=P(Nc1ccccc1)(Oc1ccccc1)Oc1ccccc1 | 3 | 2
O=c1cc(CN2C[C@@H]3[C@H](C2)[C@H]2CC[C@@H]3O2)[nH]c(=O)[nH]1 | -11 | -11
CN(Cc1ccc2c(c1)OCCO2)c1nc(-c2cccnc2)nc2ccccc12 | 9 | 6

structure | NPYLR7 ag | NPYLR7 ag max-min
Cc1nc(SCC(=O)N2C[C@H]3C[C@@H](C2)c2cccc(=O)n2C3)n[nH]1 | 9 | 8
Cn1cc(CN2CC=C(c3ccccc3)CC2)c(-c2ccccc2F)n1 | 19 | 2
O=C1NCN(c2ccccc2)C12CCN(CC1COc3ccccc3O1)CC2 (configuration not stated) | 2 | -11
COc1cccc(CC(C)NCc2nn(C)c3ccc(C)cc23)c1 (configuration not stated) | 4 | 2
COc1ccc(-c2[nH]ncc2CNC(C)Cc2ccsc2)c(F)c1 (configuration not stated) | 4 | 2
Cc1ccc(C2NCCC3(O)CCCCC23)cc1 (configuration not stated) | -1 | 1
COc1c2c(cc3c1OCO3)CCN(C)C2 | -2 | -7
CC(=O)Nc1ccccc1NC(=O)CNC(C)Cc1ncccc1C (configuration not stated) | 4 | -7
COc1cccc([C@@H]2CCN(C/C=C/c3ccco3)C[C@H]2O)c1 | -4 | -4
COC(=O)[C@]12CCC(C)(C)C[C@H]1[C@H]1C(=O)C=C3[C@@]4(C)C=C(C#N)C(=O)C(C)(C)[C@@H]4CC[C@@]3(C)[C@]1(C)CC2 | 1 | -3
C#CC(C)(C)NC(=O)c1nn(Cc2ccc(S(=O)(=O)N(C)c3ccccc3)cc2)c2ccccc12 | 13 | 13
CC1CN(C)C(C)CC1n1[nH]c(=O)cc1N (configuration not stated) | 3 | 6
CCCOc1ccc2[nH]cc(C3=CCNCC3)c2n1 | -14 | -21
N#CC(CCN1CCOCC1)(c1ccccc1)c1ccccc1 | 0 | -3
Cc1cc(C)c2c(CC(=O)N3CCCC(N4CCOCC4)C3)coc2c1C (configuration not stated) | 10 | 6
CC1=C(O)C(=O)C=C2C1=CC=C1[C@@]2(C)CC[C@@]2(C)[C@@H]3C[C@](C)(C(=O)O)CC[C@]3(C)CC[C@]12C | -8 | -16
Cc1nc(C2CCNCC2)cc(=O)[nH]1 | 20 | 10
CC(NCc1ccco1)c1nc2ccccc2c(=O)n1-c1ccc(F)cc1 (configuration not stated) | 4 | 8
CCC(C)N1C(=O)/C(=C/c2ccc3c(c2)CCN3CCCCl)C(=O)NC1=S (configuration not stated) | 1 | 48
Nc1nnc(N)n1N | 19 | 9

structure | NPYLR7 ag | NPYLR7 ag max-min
CNC(=O)[C@@H]1[C@H]2CN(C(=O)COC)CCN2C[C@H]1c1ccccc1 | 4 | 5
NCC(=O)c1ccccc1 | -4 | -9
COc1cccc([C@@H]2CN(c3ccncc3)[C@@H]3C4CCN(CC4)[C@@H]32)c1 | 3 | -2
Clc1ccc(Cn2ccnc2)cc1Cl | 3 | 4
CCOC(=O)CCCC(=O)Nc1ccc2[nH]cc(CCN3CCCC3)c2c1 | 4 | -4
Fc1ccc(COc2cccc(N3CCNCC3)c2)cc1 | 5 | 2
Cc1ccc2nc(N(CCN(C)C)C(=O)Cc3ccc(F)cc3)sc2c1 | 1 | 0
O=C(Nc1ccncc1)c1cccn(Cc2ccc(Cl)cc2)c1=O | 11 | 4
N#Cc1cnn(-c2ccc(Cl)cc2)c1N | -1 | 0
CCOC(=O)[C@H]1CN(C(=O)OCC)[C@]2(C)C(=O)N(CC(=O)N(C)C)c3ccccc3[C@H]12 | 21 | 29
O=[N+]([O-])c1cc([As](=O)(O)O)ccc1O | -9&-24 | -15&-28
COc1ccc(C(C#N)C(C)=O)cc1OC (configuration not stated) | 6 | 5
COc1ccc(CCNCc2ccc(C)s2)cc1 | 3 | 5
CCc1nc2ccccc2c(=O)n1-c1c(Cl)cccc1Cl | -16 | -24
CN1C2CCC1CC(OC(=O)C1CCC(C(=O)OC3CC4CCC(C3)N4C)(c3ccccc3)c3ccccc31)C2 (configuration not stated) | 2 | 0
N#CC1(c2ccccc2)CCN(C(=O)c2ccc(SC(F)(F)F)cc2)CC1 | -7 | -14
O=S(=O)(c1cc(F)ccc1F)N1CCN(CCOC(c2ccccc2)c2cccc(C(F)(F)F)c2)CC1 (configuration not stated) | 3 | -3
CCCCC/C=C\C/C=C\C/C=C\C/C=C\CCCC(=O)Nc1ccc(O)cc1 | -10 | -15
CCN1CCN(Cc2cnc(OC)nc2)CC1(C)C | 5 | 5
Cc1ncc(CO)c(CN2[C@H]3CCNC[C@@H]2CC3)c1O | 2 | -5

In the list so far, these have a CF3 group:
structure | NPYLR7 ag | NPYLR7 ag max-min
FC(F)(F)c1cccc(C2CNCCO2)c1 (configuration not stated) | -16 | -24
COC(=O)c1cc(C(O)(C(=O)OC)C(F)(F)F)c(N=CN(C)C)s1 (configuration not stated) | -6 | -13
N#CC1(c2ccccc2)CCN(C(=O)c2ccc(SC(F)(F)F)cc2)CC1 | -7 | -14
O=S(=O)(c1cc(F)ccc1F)N1CCN(CCOC(c2ccccc2)c2cccc(C(F)(F)F)c2)CC1 (configuration not stated) | 3 | -3

The results go on:
structure | NPYLR7 ag | NPYLR7 ag max-min
COc1cccc(CCNCc2ccccc2[N+](=O)[O-])c1 | 0 | 0
Cc1c(C)c(C)c2c(CC(C)N)c[nH]c2c1C (configuration not stated) | -1 | -2
CCN1CCN(C(=O)COc2ccc3oc4ccccc4c3c2)CC1 | -1 | 28
CCn1cc(C2=CCN(CCCOc3ccccc3)CC2)cn1 | 12 | 7
CC(C)Cc1nc(-c2cccc(CN3CCN(C(=O)COc4ccc(F)cc4)CC3)c2)no1 | 2 | -1
CN1CCC2(CC1)CCN(Cc1cc3ccc(F)cc3[nH]c1=O)C2 | 39 | 26
CN(C)C(=O)Oc1ccc(OCc2cccc[n+]2C)cc1 | -5 | -6
CNC(C)[C@H](O)c1ccccc1 (some centres not stated) | 2&-6 | 8&-10
CCCCn1cc(C(=O)c2cc(F)ccc2O)cc(C#N)c1=O | -1 | -2
CCC1=C[C@@H]2CN3CCc4c([nH]c5ccccc45)[C@@](C(=O)OC)(C2)[C@@H]13 | -2 | -6
COc1ccc(CCN)c(OCc2ccccc2)c1OC | 8 | 2
Fc1cccc(Cl)c1CC1CCCN1 (configuration not stated) | 0 | 0
CC[C@@]1(O)C[C@H](O[C@H]2C[C@H](N(C)C)[C@H](O)[C@H](C)O2)c2c(cc3c(c2O)C(=O)c2c(O)cccc2C3=O)[C@H]1C(=O)OC | 34 | 16
CN1CCC2=C[C@@H](O)[C@@H]3OC(=O)c4cc5c(cc4C3C21)OCO5 (some centres not stated) | 1 | -1
CCc1cc(C(=O)N2CCN3CCN(C)C(=O)C3C2)on1 (configuration not stated) | 7 | 4
CN1CCC2(CC1)CCN(C1CSCCSC1)C2 | 27 | 20
O=C(c1cnn2cccnc12)N1C[C@@H](c2ccccc2)[C@@H]2[C@H]1C1CCN2CC1 | 3 | 4
CC1CN=C(Nc2ccccc2)S1 (configuration not stated) | 6 | 8
O=C(Cc1ccccc1)OCCNC(=O)c1cccnc1 | -13 | -17
O=C(c1ccccc1)c1cc(Cl)ccc1N1C(=O)c2cccc([N+](=O)[O-])c2C1=O | -1 | -9

structure | NPYLR7 ag | NPYLR7 ag max-min
Clc1ccc(-c2nccn2CCc2cnc[nH]2)s1 | 4 | -6
N#Cc1ccccc1S(=O)(=O)N1CCN(CCOC(c2ccc(Cl)cc2)c2ccc(Cl)cc2)CC1 | 5 | 1
N#CCC(=O)c1cccs1 | 20 | 18
Cc1ccc(C(C)(O)CNC(C)(C)C)cc1 (configuration not stated) | 0 | 0
CN1C(=O)C(C2(C#N)CCCCC2)C(=O)N(C)C1=O | 1 | -2
C[C@]12CC[C@H](O)C[C@H]1CC[C@@H]1[C@@H]2C[C@@H](O)[C@]2(C)[C@@H](C3=CC(=O)OC3)CC[C@]12O | -3 | -7
Cc1nn(-c2ccccc2)c2c1CC(C#N)(C(=O)C(C)(C)C)C1CCCCN21 (configuration not stated) | 4 | 1
CN(Cc1ccc2c(c1)OCCO2)CC(O)c1ccc(F)cc1 (configuration not stated) | 4 | 5
COc1cc2c(cc1O)C[C@H]1c3c(cc(O)c(OC)c3-2)CCN1C | -2 | -1
COc1ccccc1C(=O)C1CCCN(Cc2nc(C(C)C)cs2)C1 (configuration not stated) | 2&1 | 1&-3
CCN(C(C)=O)c1cccc(-c2ccnc3c(C#N)cnn23)c1 | 0&-7 | -6&-1
COC(=O)C1C2c3ccccc3OC1(C)N=c1s/c(=C\c3ccc(C)o3)c(=O)n12 (configuration not stated) | 2 | 3
FC(F)(F)CCc1ccnc(N2C[C@H]3CNC[C@H]3C2)n1 | 0 | -6
O=C(CO)N1CCCC2(CCNC2)C1 (configuration not stated) | 7 | 4

Four of the compounds above, as labelled records.
> Cn1cc(CN2CC=C(c3ccccc3)CC2)c(-c2ccccc2F)n1
  NPYLR7 ag: 19	NPYLR7 ag max-min: 2
> O=C1NCN(c2ccccc2)C12CCN(CC1COc3ccccc3O1)CC2 (configuration not stated)
  NPYLR7 ag: 2	NPYLR7 ag max-min: -11
> COc1cccc(CC(C)NCc2nn(C)c3ccc(C)cc23)c1 (configuration not stated)
  NPYLR7 ag: 4	NPYLR7 ag max-min: 2
> COc1ccc(-c2[nH]ncc2CNC(C)Cc2ccsc2)c(F)c1 (configuration not stated)
  NPYLR7 ag: 4	NPYLR7 ag max-min: 2
